Screening data from PubChem BioAssay.
PKD1 kinase inh = inhibitors of human PKD1 kinase; AID 797; inhibition, %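 (about 10 µM by stock and volumes)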; PKD1 kinase fluorescence polarization assay; 200,000 compounds, 0.056% hits; Q15139;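 active = inhibition of 50% or more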;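 also: controls were vehicle for no effect and a reference inhibitor for full effect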
GALR2 ag = agonists of human galanin receptor 2 (GALR2); 140,000 compounds, 0.48% hits; O43603; GALR2-expressing cells, agonist activation read-out; activation, %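 (tested at 5 µM)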; AID 803;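 active = above mean plus 3 SD of all compounds, about 5% in these data, not always enough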;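 also: 0% = vehicle buffer wells and 100% = reference agonist at full effect; tested in CHO reporter cells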
Target sequence (O43603 whole entry, looked up): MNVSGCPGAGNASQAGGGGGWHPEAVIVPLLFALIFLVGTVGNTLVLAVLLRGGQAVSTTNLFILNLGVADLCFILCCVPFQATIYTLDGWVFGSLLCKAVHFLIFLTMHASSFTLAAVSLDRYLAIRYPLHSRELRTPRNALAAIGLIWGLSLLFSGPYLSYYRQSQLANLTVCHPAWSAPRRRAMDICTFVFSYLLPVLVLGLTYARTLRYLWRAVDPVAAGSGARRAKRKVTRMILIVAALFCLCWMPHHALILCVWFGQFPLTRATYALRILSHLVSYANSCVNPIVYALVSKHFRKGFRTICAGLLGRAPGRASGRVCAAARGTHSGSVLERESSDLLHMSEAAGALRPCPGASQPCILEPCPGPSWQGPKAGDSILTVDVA
HSV replic up = increases HSV replication in cells | HSV replication augmentation in cells, fold increase | maximum fold increase | 220,000 compounds, 0.005% hits | AID 1956;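 active = peak rise of 1.5-fold or more in the series; inconclusive = self-fluorescent or not available for retest; tested in PC3 cells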;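 also: first round at 10 µM; read as green reporter fluorescence; hits show the peak of a series up to 25 µM; 1 = signal of infected wells without compound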
RGS16-Gao = RGS16-Galphao interaction regulator (human); O15492+P09471; bead-based flow cytometry RGS16-Galphao binding, fluorescence; actives lie on both sides; binding response (% of control), % at 10 µM; 220,000 compounds, 0.38% hits; AID 1441;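 active = below 25% or above 175%, edge rows of some plates excepted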;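 also: Galphao activated by GDP with aluminum fluoride before binding; 100% = wells without compound and 0% = beads without RGS; some results beyond the cut were filed as inactive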
Target sequence (O15492 whole entry, looked up): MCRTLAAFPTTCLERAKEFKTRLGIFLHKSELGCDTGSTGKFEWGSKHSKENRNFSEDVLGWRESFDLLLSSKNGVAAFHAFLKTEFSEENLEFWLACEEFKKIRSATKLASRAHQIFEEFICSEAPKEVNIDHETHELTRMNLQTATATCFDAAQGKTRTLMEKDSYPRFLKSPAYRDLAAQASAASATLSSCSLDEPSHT
Target sequence (P09471 whole entry, looked up): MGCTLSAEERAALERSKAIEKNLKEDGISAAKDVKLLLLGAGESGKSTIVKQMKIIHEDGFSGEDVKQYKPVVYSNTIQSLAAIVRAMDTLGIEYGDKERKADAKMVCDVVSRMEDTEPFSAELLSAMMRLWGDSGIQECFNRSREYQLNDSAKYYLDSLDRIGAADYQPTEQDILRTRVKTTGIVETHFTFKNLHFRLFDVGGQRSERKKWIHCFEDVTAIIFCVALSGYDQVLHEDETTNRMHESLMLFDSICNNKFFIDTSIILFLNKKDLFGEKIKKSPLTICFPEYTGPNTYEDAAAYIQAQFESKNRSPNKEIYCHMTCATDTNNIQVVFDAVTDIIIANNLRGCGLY
Insulin prom inh = TRM-6 insulin promoter activity inhibition. TRM-6 cells (human fetal islet line), insulin promoter-eGFP reporter, imaging; reporter expression induced with tamoxifen. inhibition, % at 2 µM. 130,000 compounds, 0.9% hits. AID 1273;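 active = inhibition above the mean plus 3 SD, with well images judged a real hit on visual review, cut at about 60% in these data, passing the limit was not always enough; inconclusive = inhibition over the cutoff but images rejected on review; inactive = inhibition not above the cutoff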
Insulin prom inh cell count = also measured in Insulin prom inh; calls as there; normalized cell count, %; measured here: cell count, toxicity; reference of the scale not given here;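 cells exposed to compound for 48 h; stained nuclei by imaging scaled within each plate; lower means fewer cells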
HSV replic up primary fold = also measured in HSV replic up; calls as there; fold increase; compound at 10 µM; measured here: primary screen fold increase 10 uM; tested in PC3 cells;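 GFP signal in the first replicate; 1 = infected wells without compound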
The depositor's hits bear a star; i = inactive; u = inconclusive; x = no result given; & = joins results of further samples. No enrichment for hits. About 1.3% of those tested had a hit in this group.

The line under a structure holds: Insulin prom inh	RGS16-Gao	HSV replic up	GALR2 ag	PKD1 kinase inh	HSV replic up primary fold	Insulin prom inh cell count
Cc1c(C(=O)NC(=S)NCc2cccnc2)oc2ccccc12
→ 4.8	101.8	i	x	-5.8	1.06	117.0
CCc1nnc(NC(=O)c2ccc(S(=O)(=O)N(CC)Cc3ccccc3)cc2)o1
→ x	98.5	i	-1.0	3.7	0.84	x
C(=C\c1ccco1)/C1=NN(c2ccccc2)C(c2ccco2)C1 (centres undefined)
→ -115.4	80.2	u	72.3*	-7.0	x	75.0
Cc1ccc(S(=O)(=O)c2c(C)cc(C)nc2Oc2cccc(C(F)(F)F)c2)cc1
→ x	98.5	i	-1.0	-2.0	1.05	x
CCN1/C(=C2\C(=O)N(C)C(=S)N2C)C=Cc2cc(OC)ccc21
→ -20.0	102.9	i	-0.2	-14.4	0.97	106.6
CCOc1ccc(S(=O)(=O)NCC(=O)N(C)Cc2cccnc2)cc1
→ -78.6	102.8	i	-1.4	-0.9	0.98	149.0
COC(=O)c1sccc1-c1ccc(C(N)=O)o1
→ x	98.5	i	x	4.6	1.09	x
CCOc1ccc(CSC2=NCCN2)cc1Cl
→ x	98.8	i	-0.7	6.3	0.8	x
O=C(Cc1cccs1)N/N=C/C=C/c1ccco1
→ 37.9	95.3	i	-2.8	-8.4	1.09	127.5
COc1ccc(C(=O)Nc2nc3c(s2)CCCC3)cc1S(=O)(=O)N1CCCc2ccccc21
→ 14.8	112.7	i	-0.1	-9.9	0.75	131.7
O=C(NNC(=O)c1cccnc1SCc1cccc([N+](=O)[O-])c1)c1ccccn1
→ 0.0	102.7	i	-2.2	-6.5	0.65	104.7
O=C(CSCc1cccc(Br)c1)N1CCOCC1
→ x	100.4	i	-1.7	2.3	0.99	x
CCCc1nc2ccccc2n1CCc1ccccc1
→ 0.0	96.6	i	-0.8	-12.6	1.09	87.0
COC(/C=C/Nc1ccc(Cl)cc1)=C(C#N)C#N
→ x	97.2	i	x	-4.7	1.1	x
CN(CC(=O)N1CCCCCC1)S(=O)(=O)c1cccc2cccnc12
→ x	82.9	i	-2.7	0.0	1.02	x
CN(c1ccccc1)S(=O)(=O)c1ccc(C(=O)N2CCc3ccccc3C2)cc1
→ -105.9	113.1	i	x	-0.3	0.93	86.7
CCN(CC)C(=O)Oc1ccc2cc(Br)ccc2c1
→ -25.6	95.7	i	-0.6	7.3	1.06	93.5
O=[N+]([O-])c1cc(C=Nc2ccc3ccccc3c2)ccc1Br
→ 20.0	102.9	i	-2.4	5.6	0.9	119.0
Brc1ccc(-c2nnc3ccc(Nc4ccccc4)nn23)cc1
→ -40.0	84.4	i	-1.6	-10.7	0.98	110.5
CC1CCN(C(=O)CCCOc2cc(=O)n(C)c3ccccc23)CC1
→ 17.1	99.5	i	-1.2	-3.2	0.87	55.7
NC(=O)Nc1ccc(C(=O)OCC(=O)Nc2ccc(Cl)cn2)cc1
→ x	104.9	i	x	x	0.99	x
O=[N+]([O-])c1ccc2c(c1)C(N1CCOCC1)/C(=C/COc1ccc3ccccc3c1Br)O2 (centres undefined)
→ 20.8	101.0	i	-3.1	3.2	0.72	94.5
Cc1cccc(N/C(=N\S(=O)(=O)c2ccccc2)C(F)(F)F)c1
→ -7.1	102.3	x	-2.4	7.6	x	99.6
O=C(O)C(Cc1ccccc1)N1C(=O)/C(=C/c2cccc3ccccc23)SC1=S (centres undefined)
→ 21.7	83.6	i	-2.3	-4.0	1.02	68.6
CCc1nc(NCc2ccco2)c2oc3ccccc3c2n1
→ x	98.5	i	-2.1	4.8	0.89	x
Cc1ccc(NC(=O)c2ccc(OC(=O)COc3cccc(Cl)c3)cc2)cc1
→ 26.9	94.5	i	-1.8	-3.9	0.93	112.9
COc1c(O)c(O)c2oc(-c3ccccc3)cc(=O)c2c1OC
→ x	95.2	i	x	24.4	0.88	x
NC(=O)SCC(=O)Nc1cccc(Cl)c1
→ 13.6	98.6	i	-3.4	-0.6	0.797	50.9
COc1ccc(-c2c(C)n([O-])c3c([n+]2=O)CCCC3)cc1OC
→ 0.0	101.4	i	x	1.1	1.04	78.9
N#Cc1nc(-c2ccco2)oc1N1CCN(C(c2ccccc2)c2ccccc2)CC1
→ 14.3	97.9	i	-0.6	-6.4	1.02	122.1
CCCCC(=O)Nc1sc2c(c1-c1nc3ccccc3s1)CCN(C(C)=O)C2
→ x	109.0	i	-0.3	-10.4	0.82	x
COc1ccc(OC)c(NC(=O)Nc2cc(C(=O)O)ccc2C)c1
→ x	96.0	i	x	-2.4	1	x
O=c1[nH]n(-c2ccc(Cl)cc2)c2ncccc12
→ -103.6	99.8	i	-2.7	-2.8	0.9	161.6
COc1ccccc1C(=O)Nc1nc(N)n(-c2ccccc2)n1
→ 0.0	91.0	i	-2.7	-8.7	1.07	114.9
COc1ccc(/C=N/NC(=O)CCc2n[nH]c(=O)[nH]c2=O)cc1O
→ -20.0	75.1	i	-1.8	-3.7	1.02	66.7
Nc1cccc(C(=O)Nc2ccc3nc(-c4cccnc4)[nH]c3c2)c1
→ 50.0	107.5	i	-1.2	-15.1	0.93	123.5
CCCc1nnc(NC(=O)NCCN2C(=O)C3C4C=CC(C4)C3C2=O)s1 (centres undefined)
→ x	104.1	i	-0.3	-3.5	0.69	x
CSCCC(NC(=O)c1cccc(C)c1)C(=O)OCC(=O)NC(=O)c1cccn1C (centres undefined)
→ x	117.4	i	-1.4	-2.2	1.13	x
Cc1c(C(=O)NCc2ccc3c(c2)OCO3)oc2ccc(Br)cc12
→ 18.9	107.0	i	-2.5	-1.6	1.01	116.6
Cc1nn(C)cc1CN(C)C(=O)c1nn2c(c1Br)NC(c1cccs1)CC2C(F)(F)F (centres undefined)
→ 7.1	104.9	i	x	-1.7	0.93	85.0
COc1cccc(NC=C2C(=O)OC3(CCCCC3)OC2=O)c1
→ 15.6	98.2	i	-2.3	-13.4	0.9	99.4
Cc1nc(NC(=O)/C=C/c2ccc(F)cc2)sc1C(=O)N(C)C
→ -12.5	107.9	i	-1.0	-9.2	0.94	102.8
FC(F)(F)c1cccc(-c2nnc3ccc(C(F)(F)F)cn23)c1
→ 5.9	107.4	i	-0.9	-1.9	0.86	35.1
CC(=O)c1cccc(N2C(=O)C3C(C(=O)Nc4cc(C)on4)C4(C)C=CC3(O4)C2C(=O)NC(C)(C)C)c1 (centres undefined)
→ x	98.3	i	x	-4.2	1.01	x
CCNC(=O)OCC(CC)NC(=O)OCC(C)C (centres undefined)
→ -85.7	110.8	i	-1.4	1.2	0.97	93.7
O=C(CCN1CCN(c2ccc(F)cc2)CC1)Nc1ccc(F)cc1
→ -16.3	103.0	i	-1.3	-5.0	0.98	143.6
COCCN1C(=O)c2ccc(C(=O)O)cc2C1=O
→ -238.1	101.3	i	-1.4	-0.8	0.74	75.6
CCCc1nnc2c(N(C)S(=O)(=O)c3ccc(C)cc3)nc3ccccc3n12
→ x	105.9	i	1.4	-13.4	1.04	x
O=[N+]([O-])c1ccc2nccn2c1
→ x	97.9	i	-1.5	1.6	0.78	x
CCOC(=O)c1nn(-c2ccc(F)cc2)c2nc(-c3ccccc3)c(C#N)c(=O)n12
→ -7.7	102.0	i	-1.4	2.7	0.93	107.8
CCOC(=O)/C(C(N)=NCC(C)C)=C(/O)c1ccccc1
→ 27.0	90.2	i	-1.0	-3.3	0.863	122.3
O=C(Nc1cc(C(F)(F)F)ccc1N1CCCC1)c1ccc2c(c1)OCO2
→ -50.0	101.1	i	-1.3	-9.0	0.94	111.1
CCCCOC(=O)c1cc(=O)[nH]c2ccccc12
→ -6.2	104.7	i	0.1	3.6	1.02	129.2
COC(=O)c1ccccc1NC(=O)c1cccc(NC(=O)CSCc2ccccc2)c1C
→ -4.2	99.8	i	-4.1	-5.4	0.76	128.5
Cc1cc(N2C(=O)C=CC2=O)c([N+](=O)[O-])cc1C
→ -163.2	94.1	i	-2.0	9.5	0.97	7.3
COC(=O)C(C)Sc1nc(N)c(NC(=O)c2ccco2)c(=O)[nH]1 (centres undefined)
→ x	106.1	i	x	0.8	0.8	x
O=C1c2ccccc2C(=O)N1CCC(O)C[N+](=O)[O-] (centres undefined)
→ x	98.5	i	x	-3.1	1.14	x
CCOC(=O)C1(Cc2ccccc2)CCN(Cc2cc(=O)c3ccccc3[nH]2)CC1
→ -113.0	101.6	i	x	-8.5	0.92	50.5
Clc1ccc(-c2csc(N3CCc4ccccc4C3)n2)cc1
→ -3.2	100.5	i	-1.2	-0.1	1.03	87.3
COc1cc(C(=O)NCCOc2cc(C)cc(C)c2)c(Br)c(OC)c1OC
→ x	103.0	i	-2.4	-3.3	0.84	x

Further results follow.
The line under a structure holds: Insulin prom inh	RGS16-Gao	HSV replic up	GALR2 ag	PKD1 kinase inh	HSV replic up primary fold	Insulin prom inh cell count
Cc1ccc(C(F)(F)F)cc1NC(N)=S
→ x	103.6	i	x	3.9	0.89	x
CC(=O)N(C)N1c2ccccc2CCc2ccccc21
→ x	101.3	i	x	3.9	1.14	x
COc1ccc(-c2cnnc(N/N=C/c3ccc(O)c(O)c3)n2)cc1
→ 29.6	84.3	i	1.4	52.2*	0.92	96.3
COc1ccc2c(c1)C(c1ccc([N+](=O)[O-])cc1)=NNC(c1ccco1)=N2
→ 56.1	90.8	i	-2.2	9.4	1.03	129.7
O=C(COC(=O)c1ccccc1NC(=O)c1ccccc1)c1ccc([N+](=O)[O-])cc1
→ 3.3	88.8	i	-2.5	7.1	0.97	136.1
CCOc1cc(C(=O)N2CCOCC2)ccc1OCc1ccccc1
→ 44.0	97.8	i	-0.9	-3.0	0.93	104.4
c1ccc2cc(CN3CCOCC3)ccc2c1
→ -18.9	120.6	i	-1.9	5.2	0.8	71.2
CC(=O)Nc1ccc(S(=O)(=O)N(Cc2ccccc2)c2ccccc2F)cc1
→ x	102.5	i	x	1.7	0.92	x
O=C(OCc1ccccc1)c1cccc(-c2nnn(Cc3ccccc3)n2)c1
→ -28.6	91.3	i	-3.2	-13.7	1.02	111.9
O=C(c1cc2ccccn2n1)N1CCN(c2ccccn2)CC1
→ x	173.5	i	-2.8	-9.2	0.87	x
Cc1ccc(-c2nc(N)sc2CC(=O)OCC(=O)NCCC(C)C)cc1
→ 2.6	69.0	i	-2.1	-12.7	1.2	88.2
Cn1c(SCc2ccc(Br)cc2)nnc1-c1ccncc1
→ 28.0	101.8	i	-2.0	-2.7	0.87	82.3
COc1ccc(C(=O)NCC(=O)N/N=C/C(C)=C/c2ccco2)cc1OC
→ 25.0	116.8	i	-1.2	2.1	1.02	154.5
CNC(=O)c1cccn1-c1ccsc1C(=O)OC
→ 19.4	102.3	i	-1.5	7.0	1.05	90.6
CCOC(=O)N1CCC2(CC1)C(C#N)=C(N)Oc1n[nH]c(C)c12
→ 46.7	97.2	i	-5.4	-4.2	0.95	39.2
O=C1NCCc2c1[nH]c1ccccc21
→ 20.0	97.3&105.3	i	-2.0	-1.6	0.97&0.91	198.5
CC1CCN(CCOCCOc2ccc(Br)cc2Cl)CC1
→ -93.3	68.8	i	-0.2	-10.9	0.82	60.7
CCCCOc1ccccc1-c1cc(C(=O)O)[nH]n1
→ x	96.8	i	-1.4	-4.6	1.06	x
CN1CCN(C(=S)Nc2cc(S(=O)(=O)N3CCOCC3)ccc2Cl)CC1
→ x	96.5	i	x	3.9	1.05	x
Oc1ccc(-c2cccc(-c3ccc(O)cc3)n2)cc1
→ x	87.6	i	-2.3	10.9	0.9	x
Cc1ccc(NC(=O)CN(C)C(=O)C2COc3ccccc3O2)cc1 (centres undefined)
→ x	102.7	i	x	3.5	0.9	x
CC(C)N(Cc1cc2ccccc2[nH]c1=O)C(=O)c1ccco1
→ x	101.3	i	x	-3.4	0.98	x
COc1ccc(OC)c(S(=O)(=O)Nc2cc(C(=O)O)ccc2N2CC3CC(C2)c2cccc(=O)n2C3)c1 (centres undefined)
→ x	104.1	i	x	0.1	1.02	x
